TRPML1 blocker = blocks the human TRPML1 channel; Q9GZU1; TRPML1-inducible cells, Ca2+ dye fluorescence, FDSS; hits give low values; inhibition of EC80 agonist-evoked calcium signal; activity change, negative = inhibition, % (no concentration beside the values); hit rate 0.02% among 390,000; AID 624415; in the data active means activity change below about -50%; inconclusive means about -30% to -50%; inactive means above about -30%;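 further: stimulus is agonist 54-4 at its EC80 concentration; on the % scale 0 is the no-effect control and ±100 the full control effect; compound concentration not given in the record; the text of the record puts the active cut at -80%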
Target sequence (Q9GZU1 whole entry, looked up): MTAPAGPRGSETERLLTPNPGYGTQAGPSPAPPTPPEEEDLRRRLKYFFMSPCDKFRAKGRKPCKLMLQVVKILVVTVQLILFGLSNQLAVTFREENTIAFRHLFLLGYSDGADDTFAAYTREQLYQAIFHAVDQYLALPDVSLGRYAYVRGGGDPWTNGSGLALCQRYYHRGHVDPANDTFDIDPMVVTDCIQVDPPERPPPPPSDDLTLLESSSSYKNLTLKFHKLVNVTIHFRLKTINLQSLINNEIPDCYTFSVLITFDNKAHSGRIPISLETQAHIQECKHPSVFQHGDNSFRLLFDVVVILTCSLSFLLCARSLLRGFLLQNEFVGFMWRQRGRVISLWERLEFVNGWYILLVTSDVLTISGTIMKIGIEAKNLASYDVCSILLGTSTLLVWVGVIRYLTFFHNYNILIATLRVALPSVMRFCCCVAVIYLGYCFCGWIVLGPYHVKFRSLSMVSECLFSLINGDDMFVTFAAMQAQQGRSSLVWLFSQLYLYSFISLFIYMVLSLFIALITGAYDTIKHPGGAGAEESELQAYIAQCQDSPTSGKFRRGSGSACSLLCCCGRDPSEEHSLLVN
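Tet-induced TRPML1-DL cells loaded with Ca8 no-wash calcium dye were read kinetically on FDSS. Compound addition was followed by EC80 agonist 54-4 (4 uM final); inhibition was read over 110 s.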
TRPML1 ag = agonists of human TRPML1 channel. hit rate 0.12% among 410,000. TRPML1-expressing cells, Ca2+ dye fluorescence, FDSS; host cell line not named in the record; reference of the full effect not given here. Q9GZU1. activation, % (concentration not given with the values); in the data active = activation above about 50%; inconclusive = about 30% to 50%; inactive = below about 30%; further: 0% is about no effect; the text of the record puts the active cut at 80%
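Kinetic FDSS Ca2+ read in Tet-induced TRPML1-DL cells (ABD Ca8 dye plus quencher, 45-90 min RT loading): baseline, then compound, then 110 s agonist window; EC80 agonist 54-4 at 4uM final added afterwards for a 110 s antagonist window.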
Sfp PPTase inh = Sfp phosphopantetheinyl transferase inhibition. Q9F4F7. Biochemical Sfp PPTase activity, qHTS. Potency, µM, without a hit: max response, negative = inhibition, actives largely listed as inhibitors. hit rate 3.5% among 310,000; active means well fitted inhibition curve with a large enough effect; inconclusive means small, poorly fitted or top-dose-only effect, or another doubt; inactive means no such curve, though single readings can be large or run the other way;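 further: the enzyme is Sfp with the accession as filed and its product quenches rhodamine fluorescence; potency means the concentration at half of the fitted maximal effect; 0% = enzyme reaction without inhibitor and -100% = no enzyme wells; top concentration of the series not given in the record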
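After 15 min at room temperature with compound, 15 nM Sfp received 5 uM rhodamine-CoA plus 12.5 uM BHQ-2-ybbR (50 mM Hepes pH 7.6, 10 mM MgCl2). Rate came from the fluorescence difference over 30 min, ex 525/em 598 nm.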
ClpP mod = qHTS Assay for Activators of ClpP | hit rate 1.9% among 340,000 | AID 651965, 2013 | purified B. subtilis ClpP, FRET peptide cleavage, 20 min | Potency, µM (doses to about 57.5 µM), inactives show at the highest dose activity change, negative = active; active = well fitted falling curve with a large enough effect; inconclusive = small, poorly fitted or top-dose-only effect; inactive = no such curve, though single readings can be large or run the other way; further: potency means the concentration at half of the fitted maximal effect; the source files actives as falling curves though it sought activators and does not explain the sign; nearly all actives have a fitted effect of over 65% in size; many hits overshoot -100%
Target sequence (P80244 whole entry, looked up): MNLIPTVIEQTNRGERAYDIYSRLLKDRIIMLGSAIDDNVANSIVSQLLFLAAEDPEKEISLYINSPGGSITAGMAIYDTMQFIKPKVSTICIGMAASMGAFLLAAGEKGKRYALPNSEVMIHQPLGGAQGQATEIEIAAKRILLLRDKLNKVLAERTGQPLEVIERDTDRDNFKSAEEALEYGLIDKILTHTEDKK
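Purified B. subtilis ClpP, 10 microg/mL final in Tris/HCl pH8 with KCl, BSA, glycerol and Tween-20, cleaved an Abz/nitrotyrosine-quenched decapeptide. Fluorescence (ex 320, em 430) was read at 0 and 20 min at room temperature. Delta was normalized to 5.8 microM ADEP and DMSO/no-enzyme controls.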
TRPV1 PAM = human TRPV1 potentiation | hit rate 0.02% among 320,000 | AID 540277 | TRPV1-expressing cells, Fluo-8 calcium influx, capsaicin EC20 potentiation; host cell line not named in the record; control for the full effect not named in the record | potentiation, % at 8.33 µM | Q8NER1; active means potentiation above 80%; inconclusive means 30% to 80%; inactive means below 30%; further: 0% is about no effect
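Cells expressing TRPV1 were dye-loaded with Fluo-8 and read kinetically: 10 s baseline, 3 min after compound (agonist portion), then 2 min after EC20 capsaicin (allosteric enhancer portion). Calcium-bound dye fluorescence at 480/520 nm.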
PINK1 expr mod = changes PINK1 expression; PINK1 immunofluorescence, high-content cytometry, 24 h; Potency, µM (doses to about 76.6 µM), for the others: at the top dose activation (PINK1 increase), most hits filed as activators; hit rate 0.2% among 410,000; active = well fitted activation curve with a large enough effect; inconclusive = small, poorly fitted or top-dose-only effect; inactive = flat fitted curve, though single readings scatter; cell line not stated here;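 further: potency means the concentration at half of the fitted maximal effect; % of control where 0% means no effect; nearly all actives have a fitted effect of over 65% in size; a mitochondrial uncoupler was the plate control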
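A stable cell line was treated with compounds at 5 concentrations for 24 hours, with CCCP as control. PINK1 levels and mitochondrial localization were measured by immunofluorescence with mitochondrial, cell and nuclear markers after fixation, read by laser-scanning cytometry.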
Menin MLL FP FL = displaces fluorescein MLL peptide from human menin; 290,000 tested, under 10 active; FP activity change, % at 61.4 µM; Fluorescence polarization, fluorescein-MLL peptide displacement from menin; AID 1766; inconclusive = falling polarisation curve, or a change in total fluorescence; inactive = total fluorescence flat and polarisation flat or rising; no compound was filed as active; the % refers to the polarisation; negative = inhibition;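 further: % of control where 0% means no effect; inhibitors lower the polarisation; unlabelled MLL peptide was the positive control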
* = called active by the depositor; ? = inconclusive; . = not tested or not shown; [ ] = remark or other dose. Outcome played no part in choosing rows (roughly 4.4% active in at least one column).

SMILES	TRPML1 blocker	TRPML1 ag	Sfp PPTase inh	ClpP mod	TRPV1 PAM	PINK1 expr mod	Menin MLL FP FL
CCOC1=C2[C@H](c3ccccc3)N(S(=O)(=O)c3ccccc3)C[C@H]2n2c(=O)n(-c3ccccc3)c(=O)n2C1	52.5	0.6	.	-4.1%	.	2.9%	.
CC1(C)CC(=O)C=C(NCCN2CCN(C(=S)Nc3ccc(F)cc3)CC2)C1	-2.1	0.2	7.3%	.	-1.5	1.4%	6.2
CCCc1cc(=O)[nH]c(SCC(=O)Nc2cc(S(=O)(=O)N3CCOCC3)ccc2N(CC)CC)n1	6.1	-0.9	.	.	.	2.0%	.
COc1cccc(CNC(=O)C2CCN(C(=O)N(C)C)CC2)c1	-7.1	0.5	13.5%	-1.3%	-3.1	8.4%[38.3 µM]	-0.9
COc1ccc(NC(=O)c2ccc3[nH]c(C)c(C)c3c2)c(OC)c1	1.7	0.9	8.1%	.	8.9	4.1%	5.1
S=C(NC1CCCCC1)N1CCn2cccc2C1c1cccnc1 (centres undefined)	-1.0	-0.3	2.1%	.	-19.4	3.1%	0.6
Cc1ccccc1N1C(=O)CC(N2CCN(C(=O)c3ccco3)CC2)C1=O (centres undefined)	-5.8	-0.8	-1.4%	2.4%	-28.7	0.4%	.
O=C(CCc1nnc(C2(c3ccc(Cl)cc3)CCC2)o1)N1CCCC(O)C1 (centres undefined)	-6.5	-0.8	-1.1%	1.3%	-1.7	0.2%	?
O=C(NC1CCCCC1)c1ccc(CSc2nc3ccncc3n2Cc2ccccc2)cc1	1.2	0.5	.	-3.0%	.	-1.9%	.
COC(=O)c1ccc(C(=O)OC)c(NC(=S)N2CCCC(C)C2)c1 (centres undefined)	4.8	0.6	3.6%	-11.9%	-8.2	-1.1%	4.4
CC(=O)c1ccc(-c2ccccc2[C@H]2[C@H]3C=CC[C@@H](C)[C@@H]3C(=O)N2Cc2ccccc2)cc1	.	.	-11.9%	.	7.0	.	2.5
C/C(CC(=O)Nc1ccc(N(C)C)cc1)=N\NC(=O)c1ccc(Cl)cc1	20.9	1.5	-12.1%	-0.5%	-2.7	-1.7%	-4.3
COc1cc(NC(=O)Cc2nn(C)c(=O)c3ccccc23)cc(OC)c1	-1.2	1.3	10.1%	1.1%	-10.5	-0.6%	4.8
O=C(Nc1cccc(-n2cnnn2)c1)c1cc2ccccc2o1	-1.2	0.3	-27.9%	-0.7%	-13.3	1.2%	-0.6
Cc1nonc1CN(C)C(=O)c1cc(COc2ccc(F)cc2Cl)on1	15.6	0.8	-5.9%	-1.7%	-6.1	0.8%	.
C=CCn1c(CCCOc2ccc(Cl)cc2Cl)n[nH]c1=S	8.2	-0.2	-2.3%	-0.6%	0.6	-0.4%	3.8
COC(=O)c1ccc(CSc2nc(C)nc3c2c(=O)n(C)c(=O)n3C)o1	19.0	0.1	-16.3%	0.4%	10.7	1.4%	2.0
CN(C(=O)CCc1ccccc1F)C1CCCN(Cc2ccccc2F)C1 (centres undefined)	9.0	0.2	7.7%	0.4%	?	3.3%	-2.0
CC(=O)Nc1ccc(S(=O)(=O)NNC(=S)NCc2ccco2)cc1	-7.1	0.4	44.7µM*	1.9%	-11.6	0.5%	.
Cc1cc2oc(C(=O)NCc3ccccc3)cc(=O)c2cc1C	-2.7	2.4	-6.7%	.	-14.9	16.9%	-3.6
CC1CCc2c(sc(NC(=O)c3cccs3)c2C(=O)O)C1 (centres undefined)	17.4	2.8	-0.8%	-4.9%	-23.2	-2.4%	-3.3
CCCc1ccc(OC(C)C(=O)Nc2sc3c(c2C(=O)OC)CCCCC3)cc1 (centres undefined)	-13.8	-0.8	.	?	.	-1.1%	.
Cc1csc(N2CCCC2=O)n1	-13.8	0.4	8.2%	.	-0.7	-0.3%	2.6
CC1(C)CN(CCc2ccccc2)C(=O)[C@H]1CC(=O)Nc1ccc(Br)cc1	-15.6	0.1	.	1.4%	.	-0.2%	.
CC(C)Oc1ccc(C2NC(=O)c3ccccc3O2)cc1 (centres undefined)	-0.7	0.1	3.5%	-2.7%	0.5	-2.0%	-3.5
COc1cc(C#Cc2c(-c3cncn3C)n(C)c3ccc(-c4ccc(OC)c(OC)c4)cc23)cc(OC)c1	-7.4	-0.1	.	3.9%	6.9	0.7%	.
O=C(COc1ncnc2c(Cl)cc(Cl)cc12)Nc1cc([N+](=O)[O-])ccc1Cl	-2.8	0.6	-6.2%	-2.6%	23.7	4.0%	9.3
COc1ccc(CNc2cc(-c3cccc(C#N)c3)ncn2)c(OC)c1	.	.	-27.4%	.	.	0.5%	-1.9
COc1cc(OC)c(S(=O)(=O)Nc2ccccc2N2CCOCC2)cc1NC(C)=O	22.3	0.8	2.4%	.	-0.9	-1.8%	-3.8
COc1ccccc1C(=O)NC(CCSC)C(=O)NCC(c1cccs1)N1CCOCC1 (centres undefined)	-6.3	0.0	.	-2.1%	11.2	3.7%	.
CCCCNC(=O)C1CCN(S(=O)(=O)c2ccc3c(c2)CC(C)N3C(=O)C2CC2)CC1 (centres undefined)	3.5	-1.0	15.8%	-0.3%	-8.2	1.2%	-1.3
CCOC(=O)CSc1nc(=O)n2cccc(C)c2n1	-10.4	-0.5	10.8%	.	3.9	1.4%	-5.9
CCOC(=O)Cc1c(C)nc2cc(-c3ccc(C(C)(C)C)cc3)nn2c1C	-5.7	1.2	.	4.2%	.	0.9%	.
CC(C)NC(=O)c1ccc2c(=O)n(Cc3ccco3)c(=S)[nH]c2c1	6.0	-1.0	-16.0%	-2.9%	1.8	1.4%	3.7
COc1ccccc1C(=O)NCCC(=O)NCC1CCCO1 (centres undefined)	12.2	0.1	.	-3.3%	-3.6	0.7%	.
O=C(CSc1nnc(-c2ccc(O)cc2)n1Cc1ccco1)N1CCc2ccccc2C1	18.2	3.0	-17.8%	-0.8%	0.7	-4.0%	1.7
Nn1c(SCC(=O)NCCc2ccc(S(N)(=O)=O)cc2)nnc1C1CCCCC1	8.2	0.7	.	-0.6%	.	1.1%	.
O=C(NCCCN1CCN(Cc2ccccc2)CC1)C1CCN(S(=O)(=O)N2CCCC2)CC1	-6.5	0.4	5.8%	-0.8%	15.8	-2.6%[38.3 µM]	1.1
Cc1ccccc1OCCCCCCN1CCNCC1	4.1	0.9	.	-1.3%	.	12.2%	.
CC(NC(=O)c1cccc(OC2CCN(C3CCN(C)CC3)CC2)c1)c1ccccc1 (centres undefined)	-21.7	1.3	1.0%	-2.4%	-18.3	-0.3%	.
CCc1cccc(NS(=O)(=O)c2c(C)nc3scc(C)n3c2=O)c1	-9.7	1.5	15.5%	.	-19.0	1.1%	-12.8
CCCNC(=O)CCn1nc(-c2ccc(Cl)cc2)c2ccccc2c1=O	30.3	2.4	-1.0%	.	4.1	-1.8%	-1.1
COc1cccc2c(=O)c(C(=O)NCc3cccs3)c[nH]c12	4.9	1.0	7.8%	?	-13.4	2.4%	1.8
O=C(O)c1cccc(-c2nc3ccccc3[nH]2)c1	-0.3	-0.2	1.5%	?	0.8	0.4%	1.0
CN(C)S(=O)(=O)c1cccc(-n2sc3ccccc3c2=O)c1	-2.4	-0.4	1.58µM*	0.4%	-16.2	1.9%	1.4
CC(=O)Nc1ccc(N=NC2C(=O)N(C(N)=S)N=C2C)cc1 (centres undefined)	-17.6	0.1	?	-0.6%	-2.0	-0.2%	2.9
CC12CCC(C(=O)N3CCCCCC3)(OC1=O)C2(C)C (centres undefined)	-5.8	-0.5	0.6%	1.0%	15.8	-1.2%	0.0
COc1cccc(NC(=O)CCc2c(C)nc3c4cccnc4nn3c2C)c1	-13.7	0.3	.	4.6%	.	3.0%	.
CCN(CC)CCCN(C(=O)c1cccc(C)c1)c1nc(-c2ccc(OC)cc2)cs1	3.5	-0.1	-10.4%	-3.5%	-26.0	-1.7%	0.9
CC1=C(C#N)S(=O)(=O)C(C#N)C(c2ccccc2)C1 (centres undefined)	-1.4	-0.1	5.4%	.	9.1	-1.6%	?
CCN1C(=O)[C@H]2[C@H]3CN=C(SCc4ccc(C(=O)OC)cc4)N3[C@@](C)(C(=O)OC)[C@H]2C1=O	-5.4	2.3	.	-1.1%	.	-1.8%	.
CCCCCC(=O)Nc1cccc(C2=NOC3(C2)C[C@H](C(N)=O)N(C(=O)CC#N)C3)c1 (some centres undefined)	.	.	7.2%	.	4.8	.	?
CCN1CCc2c(sc(NC(=O)c3ccc(S(=O)(=O)N(CC)c4ccccc4)cc3)c2C(N)=O)C1	-8.1	60.6*	7.5%	0.3%	1.5	17.7%	.
CCOC(=O)Cc1csc(CC(N)=O)n1	-4.4	0.0	?	-5.2%	14.4	1.6%	3.0
Nc1ccc(CCC(=O)N2CCCC2)cc1	21.8	0.9	15.4%	0.3%	6.7	5.7%	4.2
N#Cc1c(N2CCN(c3ccc(F)cc3)CC2)nc(N)c2c(N)nc3c(c12)CC(=O)N3C1CC1	-12.5	1.4	3.8%	.	-4.0	1.1%	0.6
CCOC(CNc1cc(C)nc2c(-c3ccccc3OC)c(C)nn12)OCC	3.2	1.6	16.5%	-6.4%	-3.1	4.7%	2.0
COc1ccc(-n2cnnc2SCC(=O)Nc2ccc(N3CCOCC3)cc2)cc1	13.4	1.7	?	-1.1%	5.8	0.7%	2.1
Cc1ccc(Nc2cnn(C34CC5CC(CC(CC(=O)O)(C5)C3)C4)c(=O)c2Cl)cc1	-18.2	1.9	13.4%	1.7%	0.6	2.5%[38.3 µM]	3.1
Cc1ccc(S(=O)(=O)c2nc(-c3ccccc3Cl)oc2NCCCN2CCOCC2)cc1	35.1	0.3	-16.7%	-23.0%	0.8	-0.1%	.

Further entries follow.
SMILES	TRPML1 blocker	TRPML1 ag	Sfp PPTase inh	ClpP mod	TRPV1 PAM	PINK1 expr mod	Menin MLL FP FL
CCOC(=O)CSc1nnc(CNC(=O)c2ccc(OC)cc2OC)n1C	18.8	0.6	4.1%	-2.7%	15.9	-2.6%[38.3 µM]	-3.2
CCOC(=O)C1(Cc2cccc(F)c2)CCN(CC(O)CO)CC1 (centres undefined)	2.8	0.0	10.8%	.	20.5	0.9%	1.1
COc1ccc(C)cc1S(=O)(=O)N(CC(=O)N1CCOCC1)Cc1ccccc1	4.0	0.2	23.0%	-5.5%	-10.2	.	1.1
Cc1ccc(CN2CCC2(C)C(=O)NC(C)C)cc1 (centres undefined)	.	-0.5	.	-4.5%	.	0.6%	.
COc1ccc(-c2nnc(SCC#CCO)o2)cc1OC	-10.5	0.5	-1.4%	-2.9%	7.0	1.6%	3.4

Assay outcomes from PubChem.
